MgcRacGAP Rac1: MgcRacGAP inhibitors via phosphate release, confirmation, orthogonal assay, biochemical, inorganic phosphate detection, Rac1 (AID 652142). inhibition, %. MgcRacGAP/Rac1F28L GTP hydrolysis, Biomol green phosphate; stronger effect = higher value; test concentration not given here; none was called active though about 1 in 100 pass the limit. 2,400 tested, under 10 active;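 active means inhibition over three standard deviations or about 65%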;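 further: full inhibition control lacks the GAP enzyme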
* hit, by the source's call. This is a subset; the hit share may differ from the screen's.

structure	MgcRacGAP Rac1
COc1cc(/C=C2/C(=O)ON=C2c2ccccc2)ccc1O	39
COc1ccc(CN2CCN(Cc3ccc(C(F)(F)F)cc3)CC2)cc1	24
OCCN1CCN(CC(O)COC(c2ccc(F)cc2)c2ccc(F)cc2)CC1 (stereo not given)	20
COc1ccc(Cn2nnnc2C(c2cccnc2)N2CCN(c3ccc(O)cc3)CC2)cc1 (stereo not given)	29
O=C(CN1CCCCCC1)Nc1nc2ccccc2s1	26
Oc1ccc(/C=N/Nc2ncnc3c2ncn3Cc2ccccc2)cc1O	29
CC(=O)C1=C(O)C(=O)N(c2ccc(O)cc2)C1c1ccccc1[N+](=O)[O-] (stereo not given)	33
Nc1nc2cc(S(=O)(=O)NC3=NCCCCC3)ccc2s1	32
C[n+]1ccc(/C=C/c2ccccc2O)c2ccccc21	1
CCN(Cc1ccccc1)C1CCN(Cc2ccc(SC)cc2)CC1	5
O=C1CSC(=Nc2ccc(O)cc2)N1c1ccc(O)cc1	24
CCOc1cc(/C=C/c2cccc[n+]2C)ccc1O	35
COc1ccccc1COCC(O)CNCC1(N2CCCCC2)CCCCC1 (stereo not given)	22
COc1ccccc1N1CCN(CC(=O)NCC2CCCO2)CC1 (stereo not given)	12
Cc1[nH]c2ccccc2c1/C=N\NC(=O)CNc1ccc2c(c1)OCO2	24
CC1CCN(S(=O)(=O)c2ccc3c(c2)C(Cl)(Cl)C(=O)N3)CC1	40
CCCCNCC#CCOc1cc(C)ccc1C(C)C	30
COc1ccccc1C(=O)N1CCN(Cc2cccnc2)CC1	20
COc1ccc(CN2CCN(Cc3ccccc3F)CC2)c(OC)c1	19
COc1ccccc1Nc1ccc2c(O)cc(S(=O)(=O)O)cc2c1	21

6 entries already listed, sorted by the number in MgcRacGAP Rac1, ascending:
structure	MgcRacGAP Rac1
CCN(Cc1ccccc1)C1CCN(Cc2ccc(SC)cc2)CC1	5
OCCN1CCN(CC(O)COC(c2ccc(F)cc2)c2ccc(F)cc2)CC1 (stereo not given)	20
COc1ccccc1Nc1ccc2c(O)cc(S(=O)(=O)O)cc2c1	21
CC(=O)C1=C(O)C(=O)N(c2ccc(O)cc2)C1c1ccccc1[N+](=O)[O-] (stereo not given)	33
CCOc1cc(/C=C/c2cccc[n+]2C)ccc1O	35
COc1cc(/C=C2/C(=O)ON=C2c2ccccc2)ccc1O	39

Quoted at random: 5 compounds from above, in no set order.
structure	MgcRacGAP Rac1
COc1cc(/C=C2/C(=O)ON=C2c2ccccc2)ccc1O	39
COc1ccccc1Nc1ccc2c(O)cc(S(=O)(=O)O)cc2c1	21
COc1ccccc1COCC(O)CNCC1(N2CCCCC2)CCCCC1 (stereo not given)	22
Cc1[nH]c2ccccc2c1/C=N\NC(=O)CNc1ccc2c(c1)OCO2	24
OCCN1CCN(CC(O)COC(c2ccc(F)cc2)c2ccc(F)cc2)CC1 (stereo not given)	20

New compounds follow.
structure	MgcRacGAP Rac1
CC1C(=O)NN=C1C(=O)N/N=C\c1ccc(O)cc1O (stereo not given)	23
C#CCOCCOCCOCCNc1nc(N2CCN(C(=O)[C@H](CCCCN)n3cc(CN)nn3)CC2)nc(N2CCN(C(=O)[C@H](CCCCN)n3cc(CN)nn3)CC2)n1	36
O=C(O)CCN1C(=O)/C(=C/c2ccc(-c3nc4ccccc4s3)o2)SC1=S	36
CCN(CC)c1ccc(/C=N\NC(N)=O)cc1	29
COc1cc(/C=c2\sc3n(c2=O)CCCN=3)ccc1O	15
Cc1[nH]c2ccccc2c1N=Nc1c(C)n(C)n(-c2ccccc2)c1=O	22
C=C1CC(C(=O)N/N=C/c2ccc(O)cc2)C1	16
O=C(/C=C/c1ccco1)NC(=S)Nc1ccc(C(=O)O)cc1	34
COc1cccc(CNc2ccc(N3CCCCC3)cc2)c1OC	28
O=C(CNC(=O)c1ccncc1)N/N=C/c1ccc(O)cc1O	8
C[N+](C)(C)CCC(=O)N1C/C(=C/c2ccccc2)C(=O)/C(=C\c2ccccc2)C1	38
CC1CCCCN1Cc1c(O)ccc2c(=O)c(-c3nc4ccccc4s3)c(N)oc12 (stereo not given)	30
c1ccc(OCCCN2CCCC2)cc1	19
COc1ccc2c(c1)c(C(=O)N/N=C/c1ccc(O)c(O)c1)c(C)n2C	30
O=C(O)CCCN1C(=O)/C(=C\c2ccco2)SC1=S	42
COc1ccc(NCc2cc3ccccc3[nH]c2=O)cc1	0
O=C(N/N=C/c1ccc(O)cc1)c1csc2c1CCCC2	26
Oc1ccc(NCc2ccc(OCc3ccccc3)cc2)cc1	23
COc1ccc(N2C(S)=C(C#N)C(=O)NC2c2ccco2)cc1 (stereo not given)	40
COc1cc(/C=N/NC(=O)C(C)n2nnc3ccccc32)ccc1O (stereo not given)	29

Among those listed so far, three have two or more sulfur atoms:
structure	MgcRacGAP Rac1
Nc1nc2cc(S(=O)(=O)NC3=NCCCCC3)ccc2s1	32
O=C(O)CCN1C(=O)/C(=C/c2ccc(-c3nc4ccccc4s3)o2)SC1=S	36
O=C(O)CCCN1C(=O)/C(=C\c2ccco2)SC1=S	42

Remaining list, next part.
structure	MgcRacGAP Rac1
O=C(Cn1c(C(=O)NCC2CCCO2)cc2sccc21)c1ccccc1 (stereo not given)	18
O=C1NC(=S)S/C1=C1\Sc2ccccc2N1CCCS(=O)(=O)O	21
Cc1ncc(CO)c(/C=N/Nc2ccc(C(F)(F)F)cn2)c1O	-3
Cc1cccc(N2C(S)=C(C#N)C(=O)NC2c2cccs2)c1 (stereo not given)	33
COc1cc(/C=C(\C#N)C(=O)Nc2ccc3c(c2)OCCO3)ccc1O	27
CCCNC(=S)Nc1ccc(Nc2ccccc2)cc1	10
Cc1c(C(=O)N/N=C/c2ccc(O)cc2)sc(=S)n1C	23
COc1ccc(N2CCN(C(=O)c3ccc(Br)o3)CC2)cc1	1
O=C(CNCc1ccco1)Nc1cccc(S(=O)(=O)N2CCCCC2)c1	23
CCOc1cc(/C=C2\N=C3CCCCCN3C2=O)ccc1O	26
CC(=O)N1CCN(c2ccc(NCc3ccc(Br)o3)cc2)CC1	28
COc1ccc(C(=O)/C=C/c2ccc(O)cc2)cc1	18
COc1ccc2c(c1OC)C(=O)OC2CC(=O)c1ccc(O)c(O)c1 (stereo not given)	24
c1cc2c(cc1NC1CCCCCC1)OCO2	15
CCN(CC)c1ccc(/C=N/Nc2nc(C)cc(C)n2)c(O)c1	21
O=C(C1CCN(Cc2cc(Cl)ccc2O)CC1)N1CCN(Cc2ccccc2)CC1	28
COc1ccc(-n2c(SCC(=O)C(C)(C)C)nc3c(sc(=S)n3-c3ccccc3)c2=O)c(OC)c1	49
Cc1cc(C)cc(-n2c3nc4ccccc4nc3c3c(=O)n(Cc4ccco4)cnc32)c1	44
COc1ccc(-c2nc(-c3ccc(O)cc3O)cs2)cc1OC	23
COc1cc(OC)cc(C(=O)N2CCN(Cc3ccccc3Br)CC2)c1	15
CC(C)=C(NC(=O)c1ccccc1)C(=O)N/N=C/c1ccc(O)cc1	20
CC(C)c1ccc(CNc2ccc(N3CCOCC3)cc2)cc1	26
Oc1ccc(Br)cc1C=Nc1ccc2c3c(cccc13)CC2	23
Cc1ccc(S(=O)(=O)Nc2nsc(N)n2)cc1	54
Cc1c(N=C2NC(=O)/C(=C/c3ccc(O)cc3)S2)c(=O)n(-c2ccccc2)n1C	16
COc1ccc(NCc2ccsc2)cc1	7
O=C(CN1CCN(S(=O)(=O)c2ccccc2F)CC1)N1CCc2ccccc2C1	31

Some values from the list:
O=C(CN1CCN(S(=O)(=O)c2ccccc2F)CC1)N1CCc2ccccc2C1 | MgcRacGAP Rac1 = 31
CC(C)=C(NC(=O)c1ccccc1)C(=O)N/N=C/c1ccc(O)cc1 | MgcRacGAP Rac1 = 20
Oc1ccc(Br)cc1C=Nc1ccc2c3c(cccc13)CC2 | MgcRacGAP Rac1 = 23
COc1ccc(NCc2ccsc2)cc1 | MgcRacGAP Rac1 = 7
